Screening results deposited in PubChem by National Center for Advancing Translational Sciences (NCATS).
Cruzain Triton – blocks cruzain activity in presence of Triton detergent; Potency, µM, for the others: max response, negative = inhibition, usual class: inhibitors; P25779; 200,000 tested, 0.43% active; purified cruzain, Z-FR-AMC fluorescence, 0.01% Triton;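 also: plate controls were neutral wells for no effect and buffer without enzyme for full effect; nearly all actives have a fitted effect of over 40% in size; top concentration of the series not given in the record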
Target sequence (P25779 123-467 limits assumed): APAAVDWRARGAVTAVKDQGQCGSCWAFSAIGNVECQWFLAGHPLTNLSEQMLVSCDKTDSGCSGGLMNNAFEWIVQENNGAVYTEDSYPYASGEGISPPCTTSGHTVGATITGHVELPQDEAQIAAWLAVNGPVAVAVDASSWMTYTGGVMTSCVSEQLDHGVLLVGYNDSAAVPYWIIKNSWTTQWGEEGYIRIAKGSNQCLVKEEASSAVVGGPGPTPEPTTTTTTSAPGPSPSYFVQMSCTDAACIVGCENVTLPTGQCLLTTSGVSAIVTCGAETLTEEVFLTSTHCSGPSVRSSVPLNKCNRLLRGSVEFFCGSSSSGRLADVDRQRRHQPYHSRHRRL
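Enzyme 1.5 nM, Z-FR-AMC 2 uM, NaOAc 100 mM pH 5.5, DTT 5 mM, Triton X-100 0.01%; 15 min RT compound preincubation; kinetic ex360/em450, 60 s delta.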
SARS PLpro yeast – SARS-CoV PLP inhibition in yeast | 330,000 tested, 0.19% active | S. cerevisiae expressing SARS-CoV PLpro, growth rescue; control for the full effect not named in the record | Potency, µM (series often up to 32.9 µM), for inactives: top-dose activity, positive = growth rescue | AID 485353; active means well fitted rising curve with a large enough effect; inconclusive means small, poorly fitted or top-dose-only effect; inactive means no such curve, though single readings can be large or run the other way; also: 0% is about no effect; nearly all actives have a fitted effect of over 55% in size; growth read by luminescence after 48 h
StopGo reporter – FMDV 2A StopGo reporter, luciferase signal | human cells with a luciferase reporter of 2A StopGo recoding; control for the full effect not named in the record | Potency, µM (top dose mostly 57.9 µM), inactives show at the highest dose signal change, negative = less light | 410,000 tested, 1.2% active; active = well fitted falling curve with a large enough effect; inconclusive = small, poorly fitted or top-dose-only effect; inactive = no such curve, though single readings can be large or run the other way; tested in HEK293T cells; also: % is scaled to controls: 0 for no effect and ±100 for the full control effect; nearly all actives have a fitted effect of over 45% in size; luciferase light after 4 h
NS1 inh – inhibitors of influenza NS1 protein function. Potency, µM (titrated, usually from 46.1 µM), without a hit: at the highest dose activity, positive = more growth. 270,000 tested, 0.4% active. S. cerevisiae slowed by influenza A NS1, growth recovery by OD600. AID 2326; active means well fitted rising curve with a large enough effect; inconclusive means small, poorly fitted or top-dose-only effect; inactive means no such curve, though single readings can be large or run the other way; also: nearly all actives have a fitted effect of over 50% in size
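Recovery from NS1-induced slow growth read by OD600 in budding yeast switched to galactose assay medium (pH 6.0, -URA) at 1:100 dilution. Compound 23 nl per well; the matching strain lacking NS1 serves as control.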
LASV entry inh – Lassa virus entry inhibition; Lassa virus pseudotype entry inhibition, cell reporter; control for the full effect not named in the record; Potency, µM (top dose mostly 37.9 µM), for the others: at the top dose activity change, negative = inhibition, usual class: inhibitors; 300,000 tested, 1.2% active; active means well fitted inhibition curve with a large enough effect; inconclusive means small, poorly fitted or top-dose-only effect, or effect the other way; inactive means flat fitted curve, though single readings scatter; tested in HEK293 cells; also: % is scaled to controls: 0 for no effect and ±100 for the full control effect; nearly all actives have a fitted effect of over 50% in size; luciferase read-out
Cruzain noTriton – blocks cruzain activity in detergent-free assay; Potency, µM, inactives show max response, negative = inhibition, most hits filed as inhibitors; 200,000 tested, 2.3% active; P25779; purified cruzain, Z-FR-AMC fluorescence, no detergent;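 also: plate controls were enzyme without inhibitor for no effect and buffer without enzyme for full effect; nearly all actives have a fitted effect of over 40% in size; top concentration of the series not given in the record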
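Purified cruzain at 1.5 nM, pre-incubated 15 min with compound at room temperature in 100 mM sodium acetate pH 5.5, 5 mM DTT, 0.00005% Triton X-100. Reaction started with 2 uM Z-FR-AMC; AMC fluorescence increase over 60 s gives rate.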
RE007 growth inh – less growth of the S. pombe RE007 Vpr strain | S. pombe RE007 Vpr strain, BacTiter-Glo ATP luminescence, 24 h; control for the full effect not named in the record | Potency, µM (top dose mostly 92.2 µM), without a hit: at the top dose activity change, negative = less growth | 360,000 tested, 0.21% active | AID 651644; active = well fitted falling curve with a large enough effect; inconclusive = small, poorly fitted or top-dose-only effect; inactive = no such curve, though single readings can be large or run the other way;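 also: % is scaled to controls: 0 for no effect and ±100 for the full control effect; nearly all actives have a fitted effect of over 50% in size; the assay follows cell death caused by Vpr and the record does not say whether a fall means rescue or toxicity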
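Fission yeast strain RE007, carrying one chromosomally integrated HIV-1 vpr copy, was seeded at OD 0.01 in PMG+AL medium with 23 nL pinned compound. After 24 h at 30 °C and 99% humidity, viability was read by BacTiter-Glo luminescence.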
Marburg entry inh – Marburg virus entry inhibition; Potency, µM (series often up to 37.8 µM), without a hit: top-dose activity change, negative = inhibition, hits mostly inhibitors; Marburg virus pseudotyped entry inhibition, cell reporter; control for the full effect not named in the record; about a third of the inactives were read at about 46 µM; 300,000 tested, 1.8% active; active = well fitted inhibition curve with a large enough effect; inconclusive = small, poorly fitted or top-dose-only effect, or effect the other way; inactive = flat fitted curve, though single readings scatter; tested in HEK293 cells; about a fifth of its hits are not listed in these tables; also: % is scaled to controls: 0 for no effect and ±100 for the full control effect; luciferase read-out
An asterisk follows results filed as active; ? = inconclusive; . = not tested or not shown; & = joins results of further samples; [ ] = dose if it differs, or a comment. Unless noted, calls follow the shape of the dose curve; as a rule, active = well fitted curve in the direction sought with a large enough effect; inconclusive = small, poorly fitted or top-dose-only effect, or another doubt; inactive = no such curve, though single readings can be large; an effect the other way counts as inactive or inconclusive. Potency is read from the fitted curve at half-maximal effect.

SMILES	Cruzain Triton	SARS PLpro yeast	StopGo reporter	NS1 inh	LASV entry inh	Cruzain noTriton	RE007 growth inh	Marburg entry inh
O=C1CCC(c2ccccc2)N1C(=O)c1cccnc1 (configuration not stated)	1.0%	10%	1%	1%	2%	-8%	-6%	?
Clc1ccc(-c2nnc3cccc(Cl)n23)c(Cl)c1	0.6%	10%	0%	-46%	6%	5%	30%	8%
O=C(COC(=O)c1ccc(S(=O)(=O)NCc2ccco2)cc1)NCC1CCCCC1	7.0%	8%	0%	0%	4%	4%	-1%	0%
COc1ccc(NC(=O)c2c(Cl)cnn2C)c(C)c1	.	0%	5%	14%	.	.	-8%	.
O=C(COc1cccc2cccnc12)N/N=C1\SCC(=O)N1CCc1ccccc1	.	1%	-25%	-7%	?	.	-18%	2%[46.1 µM]
c1ccc2c(c1)-c1nc3ccccc3cc1C2N1CCOCC1 (configuration not stated)	.	.	5%	.	-14%	.	25%	5%
O=C(CC(=O)c1ccccc1)c1ccccc1	-8.6%	.	14%&66%	.	?	?	-29%	?
COc1ccc(-c2nnc(SCC(=O)Nc3cc(S(=O)(=O)N4CCCCC4)ccc3Cl)n2N)cc1	-3.8%	?	-11%	?	3%	-16%	0%	18%
CCCS(=O)(=O)N1CCC(C(=O)NCC2CCCO2)CC1 (configuration not stated)	3.1%	6%	-7%	3%	0%	1%	5%	-2%
COc1cc(C(=O)NCC(C)C)c([N+](=O)[O-])cc1OC	-2.3%	3%	-3%	11%	11%	-6%	-3%	0%
c1ccc(C2C3=C(CCCC3)Nc3ncnn32)cc1 (configuration not stated)	-2.7%	-2%	.	-3%	13%	-4%	-2%	15%
O=C(CSc1nncn1-c1cccnc1)N1CCOCC1	-0.4%	-6%	10%	11%	-2%	-1%	1%	-11%
COc1cccc(CNS(=O)(=O)c2cc(-c3cc(C)no3)ccc2C(C)C)c1	.	-23%	27%	-33%	.	.	10%	.
COc1ccc(Nc2nc(C)nc(N)c2S(=O)(=O)c2ccccc2)cc1	1.8%	.	-8%	.	2%[46.1 µM]	14%	.	-6%[46.1 µM]
O=C(Nc1cnccn1)C1c2ccccc2Oc2ccccc21	3.1%	0%	1%	2%	-2%	?	-22%	7%
CCOC(=O)c1sc(NC(=O)CSc2nc(-c3ccco3)cc(C(F)(F)F)n2)c(C(=O)OC)c1C	0.9%	-3%	.	9%	6%	-9%	-20%	?
CCc1ccccc1NC(=O)c1ccc2snnc2c1	.	1%	-14%	-4%	?	.	10%	?
O=C(Nc1nccs1)C1CCCN(S(=O)(=O)c2cccnc2)C1 (configuration not stated)	3.6%	4%	-19%	-9%	.	5%	4%	.
CCOC(=O)N[C@H](Cc1c[nH]c2ccccc12)C(=O)Nc1cccc(Cl)c1	1.9%	.	-4%	.	-6%[46.1 µM]	15%	.	?
O=C(O)c1ccccc1-c1ccccc1C(=O)Nc1ccc2c(c1)[nH]c(=O)c1ccccc12	-3.0%	-2%	4%	?	12%	-5%	11%	?
Cc1c(/C=N/NC(=O)c2ccccc2O)c2ccccn2c1C(=O)c1ccc(F)cc1	-12%	5%	25µM*	?	?	25µM*	3%	11µM*
CCOc1ccc(C(=O)Nc2cc(-c3nc4ccccc4o3)ccc2C)cc1Cl	0.5%	.	-19%	.	-5%[46.1 µM]	5%	.	.
Cc1ccc(S(=O)(=O)NCC(=O)OCC(=O)Nc2cccc(S(=O)(=O)NC3=NCCCCC3)c2)cc1C	.	-1%	-3%	-15%	?	.	-18%	10%[46.1 µM]
CCCNCc1cc(Br)ccc1OCC(=O)NCCc1ccccc1	-5.3%	?	-10%	-6%	?	-6%	-24%	?
O=C(c1cc2c(=O)n3ccccc3nc2s1)N1CCN(Cc2ccc3c(c2)OCO3)CC1	.	1%	-14%	0%	-1%	.	-2%	-1%[46.1 µM]
CC(Nc1ccc(Cl)cc1)c1cc(Cl)ccc1O (configuration not stated)	-14%	-61%	-14%	-16%	-6%	-4%	?	-3%
C[n+]1c(-c2ccccc2)cc(-c2ccc(Cl)cc2)cc1-c1ccccc1	.	-4%	?	-7%	?	.	-6%	?
COc1ccc(NC(=O)CCNS(=O)(=O)c2ccc3c(c2)CCCC(=O)N3)cc1	-1.1%	.	6%	.	-4%[46.1 µM]	-12%	.	.
CC(C)(C)c1ccc(C(=O)N2CCC(=O)N(C(CO)Cc3ccccc3)CC2)cc1 (configuration not stated)	3.0%	18%	-15%	-23%	?	?	5%	-30%
Cc1c(OCC(=O)N(C)C)ccc2c(-c3ccccc3)cc(=O)oc12	.	-1%	-9%	0%	-1%[46.1 µM]	.	-1%	-13%[46.1 µM]
CCC1CCCCN1C(=O)COc1cccc2c1CCN(C)C2=O (configuration not stated)	.	0%	-21%	.	6%	.	-10%	-12%[46.1 µM]
CCc1ccc(NC(=O)CSc2ccc(-c3ccco3)nn2)cc1	.	-2%	-12%	.	-7%	.	-3%	-10%
COc1ccc(Cl)cc1-c1nc(SCC(=O)NCCN2C(=O)CSC2=O)n[nH]1	0.2%	-4%	-14%	20%	21%	-2%	-2%	?
CCCCN(CC)CCCNC(=O)Cn1ncc2c3ccccc3n(Cc3ccccc3F)c2c1=O	-2.2%	.	-25%	.	-2%[46.1 µM]	6%	.	?
COc1ccc(C(=O)Nc2cc(C)c(NC(=O)c3ccccn3)cn2)cc1	.	-4%	-6%	-11%	-4%	.	-13%	-27%[46.1 µM]
CCc1ccc(NC(=O)CNC(=O)[C@@H]2Cc3ccccc3CN2)cc1	.	-4%	-13%	-9%	.	.	-1%	.
COc1cc(NC(=O)c2cccc(C)c2)c(Cl)cc1[N+](=O)[O-]	-6.6%	-1%	-26%	8%	19%	-9%	-15%	-3%
O=C(Nc1cc(F)ccc1F)c1cc2nc(-c3ccco3)cc(C(F)(F)Cl)n2n1	0.7%	.	-5%	.	-2%[46.1 µM]	-6%	.	.
CC(=O)Nc1ccc(N(C(=O)c2ccccn2)C(C(=O)NC2CCCCC2)c2ccc(F)cc2)cc1 (configuration not stated)	.	-1%	16%	-9%	-11%[46.1 µM]	.	10%	20%[46.1 µM]
CCOC(=O)CSC1=C(C#N)C(c2ccco2)C(C(=O)Nc2cccc(C(F)(F)F)c2)=C(C)N1 (configuration not stated)	-16%	3%	-22%	?	28%[14.3 µM]	-12%	8%	21%
COc1ccc(NC(=O)c2cn(CCC#N)nc2-c2ccc(OC)c(OC)c2)cc1	.	-2%	-7%	-14%	.	.	-2%	.
COc1ccc(CC(=O)OCC(=O)NC(=O)NC23CC4CC(CC(C4)C2)C3)cc1	-7.0%	-9%	-10%	6%	-27%	-7%	6%	1%
CCN(CC)c1ccc(Nc2nc(Cl)ncc2Br)cc1	.	-2%	?	-8%	-11%[46.1 µM]	.	-9%	?
COc1ccc2nc(Nc3nc(C)c(C(C)=O)s3)sc2c1	-5.3%	1%	-72%	-18%	?	?	-19%	?
COc1ccc(/C(C)=N/NC(=O)CNC(=O)COc2ccccc2)c(OC)c1	.	4%	52%[activator]	11%	-6%[46.1 µM]	.	10%	21%[46.1 µM]
CN(CC1CCOCC1)C(=O)CC1C(=O)NCCN1CC(c1ccccc1)c1ccccc1 (configuration not stated)	.	-1%	-20%	8%	10%	.	4%	16%
CCN1C(=NCC(C)C)N[C@@H](c2cccc(C(F)(F)F)c2)C(C(=O)OC)=C1C	.	-1%	-22%	1%&12%	.	.	-16%	.
CN(C(=S)Nc1ccc(SC(F)F)cc1)c1ccc(O)cc1	-5.4%	16%	-5%	-19%	-17%	0%	-24%	?
O=C(O)CCCN1C(=O)/C(=C/c2ccc(-c3nc4ccccc4s3)o2)SC1=S	-1.1%	1%	25%	18%	8%	0%	-5%	-2%
COc1ccc(C(=O)N(CC2CCCO2)C(C(=O)NC2CCCC2)c2ccc(C)cc2)cc1OC (configuration not stated)	1.4%	5%	-11%	-8%	-6%	7%	-11%[3.69 µM]	-1%
Cc1cccnc1NC(=O)CCc1nnc2ccc(NCc3ccco3)nn12	.	4%	-3%	13%	.	.	-3%	.
O=C1CCCc2cc(S(=O)(=O)N3CCCC(C(=O)NCc4ccc(Cl)cc4)C3)ccc2N1 (configuration not stated)	-4.8%	.	?	.	?	0%	.	.
Cc1ccc(-c2csc(N(CCCN(C)C)C(=O)c3ccco3)n2)cc1	.	0%	1%	1%	-10%	.	-25%	?
CC(=O)N(c1ccccc1)c1c(F)c(F)c(F)c(F)c1F	6.2%	4%	14%	-3%	-1%	0%	16%[3.69 µM]	?
O=C(COC(=O)c1ccc(F)cc1)Nc1ccccc1N1CCOCC1	-3.1%	7%	-11%	4%	-3%	-2%	10%	?
Cc1ccc(C(=O)CCC(=O)OCC(=O)N(C)c2c(N)n(Cc3ccccc3)c(=O)[nH]c2=O)cc1	.	3%	-1%	.	-6%	.	16%	4%
COc1cc2nc(NCCc3ccc(Cl)cc3)n3nc(-c4ccccc4)nc3c2cc1OC	0.4%	.	-17%	.	.	0%	.	5%[46.1 µM]
COc1ccc(/C=C/C(=O)OCC(=O)Nc2ccc(C)cc2)cc1S(=O)(=O)N1CCOCC1	-7.1%	6%	-9%	-7%	-6%	?	19%	-11%
Cn1c(=O)c2c(c3ccccc31)OC(C)(C)CC2	0.6%	16%	?	4%	?	6%	-14%	5%
COc1ccccc1N1CCN(c2ncnc3onc(-c4ccc(F)cc4)c23)CC1	0.7%	.	?	.	2%[46.1 µM]	7%	.	.

Continuation.
SMILES	Cruzain Triton	SARS PLpro yeast	StopGo reporter	NS1 inh	LASV entry inh	Cruzain noTriton	RE007 growth inh	Marburg entry inh
Cc1ccc(S(=O)(=O)N2CCOCC2)cc1NC(=O)COc1ccccc1Cc1ccccc1	.	-4%	?	.	?	.	2%	?
CCOC(=O)CSc1nnc(CNC(=O)c2ccc(S(=O)(=O)N(C)C)cc2)n1C	.	0%	3%	-6%	.	.	-3%	.
CCn1c(NCc2ccc(OC)c(OC)c2)nc2ccccc21	1.7%	.	-10%	.	-8%[46.1 µM]	13%	.	?
CCOc1ccc(C(=O)Nc2cccc(OCc3cc(=O)n4ccccc4n3)c2)cc1	6.3%	.	11%	.	8%[46.1 µM]	-12%	.	.
Cc1sc2ncnc(N3CCC(C(=O)Oc4cccc(Cl)c4Cl)CC3)c2c1C	.	1%	-5%	.	.	.	-6%	2%[46.1 µM]
